NPYLR7 agonist – agonists of mosquito NPYLR7 receptor, primary screen, cell-based, Aedes aegypti, calcium fluorescence, mosquito biting behavior. HEK293T NPYLR7/Galpha15, GCaMP6s calcium fluorescence. activation, % at 10 µM. 0.15% of 270,000 active. AID 1259423, 2018; in the data active means activation above about 40%;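 further: 0% = vehicle and 100% = reference agonist at the receptor; some compounds past the cut are filed as inactive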
NPYLR7 agonist max-min – second read-out of NPYLR7 agonist, no call of its own (marks repeat the call); activation, %; measured here: Max-Min RFU normalised activation; some inactives read as strong as hits;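 span of the calcium signal over five minutes; 0% = vehicle and 100% = native peptide agonist; compound fluorescence can raise it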
Numbers without * were called inactive; & = joins results of further samples. A portion of the library; count on the stated rates, not on these rows.

canonical_smiles | NPYLR7 agonist | NPYLR7 agonist max-min
CCOc1ncccc1CN1CCCC(C(=O)Nc2ccc(C(C)C)cc2)C1 (stereo not drawn) | -12.1 | -17.3
C=CCn1c(C2CC2)nn(CN2CCc3cc(OCC)c(OCC)cc3C2)c1=S | 8.1 | 0.0
COc1ccc2sc(N(CCCN3CCOCC3)C(=O)c3ccno3)nc2c1 | 0.3 | 31.8
O=P(CCN1CCCCC1)(c1ccccc1)c1ccccc1 | 10.8 | 5.8
Cc1cc(OCC(=O)NS(C)(=O)=O)c(C(C)C)cc1Cl | -11.4 | -15.9
Cc1ccsc1CN(CC1CCC(N)CC1)C1CC1 (stereo not drawn) | 0.5 | -0.6
O=C(CN1CN(c2ccccc2)C2(CCN(C(=O)c3ccc(C(F)(F)F)cc3)CC2)C1=O)NCCc1ccc(Cl)cc1Cl | 15.5 | 10.4
CC(C)CNC(=O)c1c(N)n(/N=C\c2cccc(O)c2)c2nc3ccccc3nc12 | 9.4 | 0.3
Cc1ccc(-n2nc(C(C)C)c(C(=O)N3CCOCC3)c2C(C)C)cc1 | 6.2 | 15.8
CCC(NC(=O)c1coc(COc2ccc(F)cc2)n1)c1ncnn1C (stereo not drawn) | 2.6 | -12.1
COc1cccc(OC)c1-c1ccc(-n2cncc2C(=O)NCc2ccc(OC(F)(F)F)cc2)cc1 | 23.0 | 14.8
O=C(Cc1cccs1)Nc1ccc(C(=O)Nc2nccs2)cc1 | -6.6 | -12.0
CCC(C)NC(=O)c1snc(C(=O)NCC(C)C)c1N (stereo not drawn) | -3.3 | -7.9
Cc1cc(-c2ccccc2)nc2cc(C(=O)N3CCCc4ccccc43)nn12 | -4.5 | -10.4
CCC(c1cccnc1)N(C)C(=O)c1ccnc(C(C)C)n1 (stereo not drawn) | 22.1 | 14.1
Cc1nnc(SCC(=O)NN2C(=O)NC3(CCCCC3)C2=O)s1 | 14.2 | 23.7
CCn1c(C)c(C(=O)CN(CC(C)C)C(=O)Nc2c(C(C)C)cccc2C(C)C)c(C)c1C(=O)OC | -6.5 | 5.4
Oc1ccccc1OCc1nc2ccccc2s1 | 2.7 | 58.3
O=C(CCOc1ccccc1)Nc1nccs1 | 6.2 | -1.2
O=C(Nc1ccc(F)cc1)N1CCN(C(C(=O)N2CCc3ccccc3C2)C2CCCC2)CC1 (stereo not drawn) | -9.5 | -4.6
O=C(CN(CCCN1CCOCC1)C(=O)c1cc(Cl)cc(Cl)c1)N(Cc1ccc(F)cc1)Cc1ccco1 | -2.3 | 3.0
COc1ncccc1C(=O)N1CCN(CCNC(=O)c2cccs2)CC1 | -3.1 | -4.2
CCCSc1nnc(CN2CCOCC2)n1C | 16.9 | 7.8
Cc1ccc2c(c1)c(=O)c(C(=O)N(Cc1sccc1C)C1CC1)cn2C | 5.8 | 2.2
O/N=C(/C(=N/O)c1ccoc1)c1ccoc1 | 11.9 | 10.7

The list goes on, overlapping the part above by seven compounds.
canonical_smiles | NPYLR7 agonist | NPYLR7 agonist max-min
O=C(CCOc1ccccc1)Nc1nccs1 | 6.2 | -1.2
O=C(Nc1ccc(F)cc1)N1CCN(C(C(=O)N2CCc3ccccc3C2)C2CCCC2)CC1 (stereo not drawn) | -9.5 | -4.6
O=C(CN(CCCN1CCOCC1)C(=O)c1cc(Cl)cc(Cl)c1)N(Cc1ccc(F)cc1)Cc1ccco1 | -2.3 | 3.0
COc1ncccc1C(=O)N1CCN(CCNC(=O)c2cccs2)CC1 | -3.1 | -4.2
CCCSc1nnc(CN2CCOCC2)n1C | 16.9 | 7.8
Cc1ccc2c(c1)c(=O)c(C(=O)N(Cc1sccc1C)C1CC1)cn2C | 5.8 | 2.2
O/N=C(/C(=N/O)c1ccoc1)c1ccoc1 | 11.9 | 10.7
CN(C)c1nc(Nc2ccccc2)c2cnn(C)c2n1 | 2.2 | 0.9
CNc1nnc(SCC(O)COc2ccc(Cl)cc2)s1 (stereo not drawn) | -5.0 | -4.9
CC(C)(C)OC(=O)NCC1CCCN1CC(F)F (stereo not drawn) | -7.0 | -7.8
CC(C)(C)Nc1c(-c2ccc(Cl)cc2)nc2ccccn12 | -3.9 | 2.3
CCc1nn2c(ncc3c(=O)n(-c4cccc(OC)c4)ccc32)c1-c1ccc(OC)cc1 | 8.5 | 8.6
Cc1cc(C(=O)CSc2nnc(C3CC3)n2C2CC2)c(C)n1CCC1=CCCCC1 | 6.0 | 1.6
Cc1n[nH]c(=O)n1-c1ccc2ccccc2c1 | 5.8 | 5.6
CC(C)Oc1ccc(C(O)=C2C(=O)C(=O)N(CCN(C)C)C2c2cccs2)cc1 (stereo not drawn) | -5.0 | -10.0
Cc1ccc(CC(=O)Nc2ccccc2OC2CCCC2)s1 | -24.5 | -21.5
O=C1c2ccccc2C(=O)N1CCCC(=O)n1ccc2ccccc21 | 0.9 | 1.6
COc1ccc(NC2(C(=O)N3[C@@H]4CC[C@H]3CNC(=O)C4)CCCC2)cc1 | 7.5 | 2.0
CCCC(=O)Nc1ccc(-n2ccnc2-c2nccn2C)cc1OC | -1.8 | -3.4
Cc1cccc(OCC(=O)OCc2cc(-c3cc4ccccc4o3)on2)c1 | -1.0 | -1.1
CCOC(=O)c1c(NC(=O)CCC(=O)OC)sc2c1CCC(C#N)(c1ccccc1)C2 (stereo not drawn) | 5.3 | 1.2
C=CCn1c(-c2ccoc2C)n[nH]c1=S | -2.8 | -7.1
Cc1cn2cc(CNC(=O)c3ccc(C#CC(C)(C)O)o3)nc2s1 | 3.4 | -3.5
COCC1(C(=O)NCc2ccc(N3CCCC3=O)cc2)CCC1 | 4.6 | 2.1
Cc1ccc(C)n1-c1c(C(=O)NCCC(C)(C)C)cnn1C | 3.6 | 0.0
CCCCCCCC(=O)Nc1ccc(-n2nc(OC)nc2-c2ccccc2C)cc1 | -0.8 | 8.3
CCOC(=O)C1(Cc2ccccc2)CCN(Cc2ccc(C(=O)OC)cc2)CC1 | 10.3 | 3.4
O=c1nc2c(-c3cccc(F)c3)n[nH]n2c2ccccc12 | -6.9 | -12.6
CCNc1ccnc(-c2ccnc3c2ccn3C)n1 | 17.8 | 2.7
CCc1nc(SCC(=O)NC(C)C(=O)Nc2ccc(F)cc2C)n[nH]1 (stereo not drawn) | -1.0 | 11.9
Cc1nn(C)c2ncc(S(=O)(=O)N3CCN(C(C)(C)C(N)=O)CC3)cc12 | 6.0 | 3.1
Cc1cc(=O)n(-c2c(F)c(F)c(F)c(F)c2F)[nH]1 | -5.8 | -9.8

Among those listed so far, three have two or more sulfur atoms:
canonical_smiles | NPYLR7 agonist | NPYLR7 agonist max-min
O=C(Cc1cccs1)Nc1ccc(C(=O)Nc2nccs2)cc1 | -6.6 | -12.0
Cc1nnc(SCC(=O)NN2C(=O)NC3(CCCCC3)C2=O)s1 | 14.2 | 23.7
CNc1nnc(SCC(O)COc2ccc(Cl)cc2)s1 (stereo not drawn) | -5.0 | -4.9

(continued)
canonical_smiles | NPYLR7 agonist | NPYLR7 agonist max-min
CC(C)Cc1cc(CN2C[C@H]3C[C@H](O)[C@H](O)C[C@H]3C2)[nH]n1 | -1.0 | -1.5
COC(=O)/C=C/c1c(OC(F)F)noc1C | -1.5 | -6.6
CC(=O)c1[nH]c(C)c(C(=O)N2CCC3(CCCN(C)CC3)CC2)c1C | 5.2 | 3.2
Cc1nn(S(=O)(=O)c2ccc(C(C)C)cc2)c(C)c1S(=O)(=O)N1CCCCC1 | 4.4 | 2.0
N#CN(CCOC(=O)c1ccccc1)C(=O)c1ccccc1 | -5.7 | -5.9
O=C(O)C=CC(=O)N1CCOCC1 | 1.6 | 0.7
CN(C)P(=NC(=O)c1cc(Cl)cc(Cl)c1)(N(C)C)C(C)(C)C | 3.0 | -0.6
CCN(CC)C(=O)Oc1ccc2c(ccn2Cc2cccc(F)c2)c1NC(=O)C12CC[C@@](C)(C(=O)O1)C2(C)C | 1.4 | -7.4
Cc1cc(C)cc(CSCC(=O)N2CCC3(CN(C)C(=O)O3)C2)c1 (stereo not drawn) | -2.8 | -3.6
COc1ccc(F)c(F)c1CN1CCCCC1c1ccccn1 (stereo not drawn) | 17.2 | 1.3
O=C1CC2(C(=O)N1CCC(F)(F)F)C(=O)N(CCCCOc1ccccc1)c1ccc(Cl)cc12 (stereo not drawn) | -2.0 | -9.8
O=C(Cc1ccccc1)N1CCN(c2c(-c3ccccc3)cnc3ncnn23)CC1 | 28.1 | 21.3
Fc1ccc(-c2noc(CN3CCN(c4ncccn4)CC3)n2)cc1 | 4.6 | 3.9
COc1ccc(-c2ccccc2)cc1NC(=O)C1(C)CCN1C(=O)C(C)C (stereo not drawn) | 8.1 | 2.6
Cc1cc(C)c2c(c1C(=O)N(C)CCc1ccccn1)CC(C)(C)C2=O | -4.8 | -11.5
Cc1ccc(NC(=O)CC23CC4CC(CC(O)(C4)C2)C3)cc1 | -1.4 | -2.4
CCN(CC)C1CCN(C(=O)CCc2nnc(Cc3cc(OC)ccc3OC)o2)C1 (stereo not drawn) | 0.2&7.8 | -4.8&12.8
CSc1ccccc1C(=O)Nn1cnc2c(cnn2-c2ccc(C)c(C)c2)c1=O | 5.1 | 2.5
CCOc1ccccc1CNC(=O)c1ccc(Cn2c(=O)[nH]c3cc(OC)c(OC)cc3c2=O)cc1 | -6.1 | -7.6
Cc1cccc(C)c1NC(=O)c1ccccc1NC(=O)C1CCOCC1 | -6.4 | -8.0
Cc1ccc(C)c(OCCCn2cnc3ccsc3c2=O)c1 | 4.6 | 4.0
CCN1CCN(C(=O)CCC2CCN(C(C)Cc3cccc(C)n3)CC2)CC1 (stereo not drawn) | 2.6 | -1.3
CCn1ncnc1CN1CCC(CNC(=O)C2CCCCC2)C1 (stereo not drawn) | -1.9 | -2.3
Cc1nnsc1C(=O)N1CCN(c2nc3c(F)cccc3s2)CC1 | -0.2 | -2.2
CC(C)Cc1noc(CN(C)C(=O)CC2C(=O)NCCN2C2CCCC2)n1 (stereo not drawn) | 2.0 | 0.4

Arranged by heavy-atom count (ascending): 3 of the compounds above
canonical_smiles | NPYLR7 agonist | NPYLR7 agonist max-min
CC(C)Cc1cc(CN2C[C@H]3C[C@H](O)[C@H](O)C[C@H]3C2)[nH]n1 | -1.0 | -1.5
CN(C)P(=NC(=O)c1cc(Cl)cc(Cl)c1)(N(C)C)C(C)(C)C | 3.0 | -0.6
COc1ccc(-c2ccccc2)cc1NC(=O)C1(C)CCN1C(=O)C(C)C (stereo not drawn) | 8.1 | 2.6

(further entries)
canonical_smiles | NPYLR7 agonist | NPYLR7 agonist max-min
O=C(CCl)NCCc1ccccc1F | -4.0 | -7.1
CCC(=O)Nc1cccc(C(=O)NCC[C@@H]2C[C@@H]3C=C[C@H]2C3)c1 | 17.3 | 3.7
C=CCc1cccc(/C=N\NC(=O)c2cc(C)nc3ccccc23)c1O | -5.4 | -3.4
CCS(=O)(=O)NCC(c1cccs1)S(=O)(=O)c1ccc(F)cc1 (stereo not drawn) | -7.9 | -8.7
COc1ccc(-n2cnnc2SCC(=O)NCCSc2ccc(Cl)cc2)cc1 | -6.3 | -8.3
CN(Cc1ccc(C(F)(F)F)cc1)C(=O)Cc1cn2ccsc2n1 | 9.5 | 7.0
O=C(Cn1cnnn1)N(Cc1nc2ccccc2c(=O)[nH]1)CC1CCCO1 (stereo not drawn) | 15.1 | 12.6
CC(=NN1CCN(Cc2cccc3ccccc23)CC1)c1ccc(Br)cc1 | -6.5 | -5.4
N#Cc1c(NC(=O)c2ccc3c(c2)CCCC3)nc2n1CCS2 | 1.0 | -1.6
O=C(NCc1cccnc1)C1CCN(C2CCN(Cc3ccsc3)CC2)CC1 | 0.1 | -5.3
CC(=O)c1ccc(S(=O)(=O)N(C)CC(=O)Nc2nnc(CC(C)C)s2)cc1 | -1.6 | 2.8
COC(=O)Cn1c(=NC(=O)c2ccn(C)n2)sc2cccc(F)c21 | 4.7 | 13.4
CC(CCc1ccccc1)NC(=O)c1cncn1-c1ccc(-c2ccc(F)c(F)c2)cc1 (stereo not drawn) | 4.1 | 0.9
Cn1cc(CNC(=O)C2CCC(=O)N(CCCc3ccccc3)C2)cn1 (stereo not drawn) | -3.8 | -3.3
COCCCNC(=O)c1cc2cc(Cl)ccc2oc1=O | 7.1 | 5.0
COCCn1c(=NC(=O)CCS(=O)(=O)c2ccccc2)sc2cc(OC)ccc21 | 1.0 | 1.9
CCOC(=O)C1=C(C)N=c2s/c(=C\c3ccc(-c4ccccc4[N+](=O)[O-])o3)c(=O)n2C1c1ccccc1 (stereo not drawn) | -2.1 | 0.5
CC1CCN(C(=O)c2ccc(-c3ccc(F)c(F)c3)s2)CC1 | -13.1 | -8.3
O=C(Nc1ccc2ncsc2c1)C1CC=CCC1C(=O)N1CCN(c2ccccn2)CC1 (stereo not drawn) | 3.2 | -1.5
O=C(Nc1ccc(OC2CCCC2)c(F)c1)N1CCOCC1 | -23.2 | -26.4
O=C(CSc1n[nH]c(C2CCCC2)n1)Nc1cc(Cl)ccc1F | 3.2 | 1.9

Laid out differently: 2 of the compounds above.
Sequence of screens – NPYLR7 agonist | NPYLR7 agonist max-min
CC(CCc1ccccc1)NC(=O)c1cncn1-c1ccc(-c2ccc(F)c(F)c2)cc1 (stereo not drawn)
 : 4.1 | 0.9
Cn1cc(CNC(=O)C2CCC(=O)N(CCCc3ccccc3)C2)cn1 (stereo not drawn)
 : -3.8 | -3.3

Source: PubChem BioAssay
